AmpC nodet inh = Promiscuous and Specific Inhibitors of AmpC Beta-Lactamase (assay without detergent); AmpC nitrocefin hydrolysis, absorbance 480 nm, no detergent; potencies from a single point are estimates; Potency, µM (doses to about 28.7 µM), inactives show top-dose activity change, negative = inhibition; 71,000 compounds, 1.8% hits; AID 585, 2007; active = falling curve, for most hits resting on a single point; inconclusive = weak or doubtful change; inactive = flat or rising curve; further: % of control where 0% means no effect; a quarter of the inactives give rising signals
Target sequence (P00811 whole entry, looked up): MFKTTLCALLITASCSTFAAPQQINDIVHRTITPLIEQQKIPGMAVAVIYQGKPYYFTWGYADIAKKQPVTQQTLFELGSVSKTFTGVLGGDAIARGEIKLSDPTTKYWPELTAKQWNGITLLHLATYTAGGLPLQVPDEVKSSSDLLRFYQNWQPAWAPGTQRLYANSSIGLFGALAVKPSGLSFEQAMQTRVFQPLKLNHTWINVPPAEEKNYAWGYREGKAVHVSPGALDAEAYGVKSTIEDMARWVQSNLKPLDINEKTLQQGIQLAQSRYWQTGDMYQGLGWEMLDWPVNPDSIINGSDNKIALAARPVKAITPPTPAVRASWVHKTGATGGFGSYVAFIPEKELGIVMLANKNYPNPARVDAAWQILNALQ
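AmpC in 20 mM phosphate buffer pH 7.0 was preincubated 15 min at room temperature with compounds. Nitrocefin (800 uM stock) was then added and hydrolysis followed at 480 nm every 20 s for 4 min.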
* = called active by the depositor; ? = inconclusive; [ ] = another dose, or the depositor's remark. Potency means the concentration at half of the fitted maximal effect.

Compound,AmpC nodet inh
CO[C@@H]1CC[C@@]2(C)[C@@H](CC[C@@]3(C)[C@H]2CC=C2[C@H]4CC(C)(C)[C@H](O)[C@@H](OC(C)=O)[C@]4(CO)[C@H](O)C[C@]23C)[C@@]1(C)CO (tested in a mixture with another compound),100.3%[12.8 µM]
N#Cc1nc(-c2ccc(OCc3ccccc3)cc2)oc1NCc1cccnc1,51.9%
c1ccc2nc3c(nc2c1)c1ccccc1n3CCN1CCOCC1,114.6%
CCN=C1SC(CC(=O)Nc2ccccc2OCC)C(=O)N1CC (stereo not drawn),37.7%
CC(=O)Nc1cccc2c1[n+]([O-])c(C)c(C)[n+]2[O-],-13.9%
CCCCCOC(=O)c1ccc(NC(=O)c2ccco2)cc1,31.6%
C=C(c1cccc2ccccc12)P(=O)(O)O,8.7%
C=CCO,-14.7%
Cc1cc2oc(=O)c3c(c2cc1OCc1nn[nH]n1)CCCC3,-13.9%
CN(C)CC[C@@H](C(=O)C(C)(C)C)c1ccccn1,1.7%[5.75 µM]
C=CCN1C(=O)CN=C1Nc1cc(C)ccc1C,6.2%
CN1CCN(S(=O)(=O)c2cccc(C(=O)NC3CCCc4ccccc43)c2)CC1 (stereo not drawn),77.2%

Further entries.
Compound,AmpC nodet inh
COc1cccc(-c2nc(-c3ccc(NC(=O)Cc4ccccc4OC)cc3)no2)c1,12.3%
Cn1c(=O)c2c(nc(CN3CCN(C(=O)c4ccco4)CC3)n2Cc2ccc(F)cc2)n(C)c1=O,116.0%
CCN1CCc2c(sc(NC(=O)c3ccc(S(=O)(=O)N4CCOCC4)cc3)c2C(=O)OC)C1,103.0%
CCOC(=O)c1ccc(NC(=O)N2CC(C)OC(C)C2)cc1 (stereo not drawn),-2.4%
CCC(=O)N1CCc2cc(S(=O)(=O)CCC(=O)N3CCc4ccccc4C3)ccc21,52.6%
CCc1c(O)nc(SCC(=O)Nc2ccccc2OC)[nH]c1=O,-11.4%
COc1ccc(S(=O)(=O)NC(CC(=O)NCc2ccc3c(c2)OCO3)c2ccco2)cc1 (stereo not drawn),-5.6%
CC1CCCC(NC(=O)CC2Nc3ccccc3NC2=O)C1C (stereo not drawn),18.4%
CCC(=O)N1CCc2cc(OC)c(OC)cc2C1COc1ccc(C(=O)OC)cc1 (stereo not drawn),96.9%
CCOC(=O)c1cnc(SCC(=O)Nc2cc(OC)cc(OC)c2)nc1N,3.7%
c1coc(-c2nc3nc4ccccc4nc3n2CC2CCCO2)c1 (stereo not drawn),22.1%
CCOC(=O)C1CCCN(C(=O)Cn2nc(Cc3cccnc3)c3ccccc3c2=O)C1 (stereo not drawn),3.16µM*[single pt active]

Additional results:
Compound,AmpC nodet inh
Cc1cccc(N2CCN(C(=O)COc3cc(=O)n(C)c4ccccc34)CC2C)c1 (stereo not drawn),50.4%
Cc1ccc(C(=O)CSC2=NC(N)=C(C#N)C3(CCCCC3)C2C(N)=O)cc1 (stereo not drawn),-7.1%
CC(CN1CCN(C)CC1)OC(=O)c1ccc(Cl)cc1 (stereo not drawn),2.3%
Cc1nc2c3cnn(-c4ccc(C)c(C)c4)c3ncn2n1,38.0%
COC(=O)[C@@]1(Cc2ccc(F)cc2)[C@H]2c3cc(C(=O)N4CCCC4)n(CCc4c[nH]c5ccc(OC)cc45)c3C[C@H]2CN1C(=O)c1ccccc1,59.8%
Fc1cccc(Cl)c1Cn1nnc2c(NCc3ccccn3)ncnc21,23.3%
Cc1nc(SCC(=O)NCc2ccco2)nc(C)c1C,33.5%
C(=C\c1ccccc1)/CSc1nnc(-c2cnccn2)n1Cc1ccco1,52.3%
CCCC(=O)Nc1sc(C(=O)OC)c(C)c1C(N)=O,-9.6%
c1cc2c(c(NC3=NCCN3)c1)CCCC2,-1.7%[5.75 µM]
Cn1nnnc1SCc1c(F)cccc1F,-7.1%
COC(=O)c1ccc(CSc2nc3c(c(=O)n2-c2ccc(C)cc2)SCC3)o1,-4.6%

Further records.
Compound,AmpC nodet inh
CNC(=O)c1cc2c(=O)n3cccc(C)c3nc2n(C(C)C)c1=N,-4.4%
COc1ccccc1N1CCN(C(=O)C2CCC(Cn3c(=S)[nH]c4ccccc4c3=O)CC2)CC1 (stereo not drawn),68.6%
CCCCCCN(C(=O)CCCCCN1C(=O)NC(C2CCCCC2)C(C(=O)OCc2ccccc2)=C1C)C(C(=O)NCCCC)c1ccc(OCC(=O)OC)c(C(=O)OC)c1 (stereo not drawn),63.9%
CCOc1ccccc1N1CCN(Cc2ccc(OC)c(OC)c2OC)CC1,29.3%
Cc1cc(-c2ccc(Cl)cc2)n2nc(N)nc2n1,-3.2%
CC(C)(C)n1nnnc1C(c1cccs1)N(Cc1ccccc1)Cc1cccnc1 (stereo not drawn),83.1%
O=C(CSc1ncnc2nc[nH]c12)c1ccccc1,-2.7%[5.75 µM]
COc1ccc(C(=O)N2CC=C(c3ccccc3)CC2)cc1S(=O)(=O)N1CCOCC1,146.4%
O=C(Nc1c(-c2ccccc2)nc2ccccn12)c1ccco1,-9.0%
Cc1sc2ncn(CC(=O)OC(C)C(=O)NC(C)(C)C)c(=O)c2c1C (stereo not drawn),38.5%
COc1ccccc1NC(=O)N1CCN(c2ncccn2)CC1,4.1%
O=C(NCCOC(=O)C1COc2ccccc2O1)c1cccnc1 (stereo not drawn),2.3%

(further entries)
Compound,AmpC nodet inh
COc1ccc(OC)c(CNc2nc3ccccc3n2CCN2CCCCC2)c1,-7.3%
FC(F)(F)c1cccc(N2CCN(c3nnnn3-c3ccccc3)CC2)c1,36.5%
CCOC(=O)COc1cc(=O)n(CC)c2ccccc12,5.6%
COc1ccccc1N1CCN(C(=O)Nc2cccc(C)c2)CC1,40.5%
CCCC(=O)C1=C(O)C(C(=O)OC)C(C)(C)CC1=Nc1ccccc1 (stereo not drawn),57.0%
CN1C(=O)C(O)(CC(=O)c2cccc(-n3cccc3)c2)c2ccccc21 (stereo not drawn),38.1%
COc1ccccc1OCCCCCc1c(C)n[nH]c1C,49.7%
Cc1cc(C(=O)OCC(=O)Nc2nc(-c3ccccc3)cs2)c(C)o1,-20.0%
O=S(=O)(N1CCOCC1)N1CCN(c2ccccc2F)CC1,15.7%
CSCC[C@H](NC(=O)OC(C)(C)C)c1nnc(SCC(=O)Nc2ccc(C)cc2C)o1,45.1%
NC(=O)C[C@@H]1N[C@]2(C(=O)Nc3ccccc32)[C@@H]2C(=O)N(c3cc(C(F)(F)F)ccc3Cl)C(=O)[C@H]12,28.0%
O=C(c1cc(-c2ccc(Cl)cc2)on1)N1CCOCC1,21.8%

The final three compounds of the section before are carried over, then new ones follow:
Compound,AmpC nodet inh
CSCC[C@H](NC(=O)OC(C)(C)C)c1nnc(SCC(=O)Nc2ccc(C)cc2C)o1,45.1%
NC(=O)C[C@@H]1N[C@]2(C(=O)Nc3ccccc32)[C@@H]2C(=O)N(c3cc(C(F)(F)F)ccc3Cl)C(=O)[C@H]12,28.0%
O=C(c1cc(-c2ccc(Cl)cc2)on1)N1CCOCC1,21.8%
CCOC(=O)CNC(=O)CSc1nnc(-c2ccccc2OC)n1CC,2.4%
COc1ccc(NC(=O)c2ccco2)cc1NC(=O)c1cccc(OC(C)C)c1,44.2%
Cc1ccc(-n2c(SCC(=O)Nc3ccc4c(c3)OCO4)nnc2-c2cccs2)cc1,2.5%
O=C(NC1CCCCCCC1)c1ccc(CNc2c(N3CCOCC3)c(=O)c2=O)cc1,55.4%
CS(=O)(=O)Nc1cccc(-c2cncnc2NCc2ccccc2)c1,1.0%
Cc1cccc(OCCC(=O)Nc2c(C)n(C)n(-c3ccccc3)c2=O)c1,2.1%
Cc1ccsc1-c1nc(CSCC(=O)N2CCN(c3ccccc3)CC2)c(C)o1,127.1%
COc1ccc(S(=O)(=O)N2CCC(C(=O)N3CCCCC3)CC2)cc1OC,30.6%
COc1cccc(-c2nc(CSCC(=O)NCC3CCCO3)c(C)o2)c1 (stereo not drawn),54.9%
Cc1cc(SCC(=O)c2ccccc2)nc2ccccc12,-13.9%[5.75 µM]
CCCCCOC(=O)C1[C@H]2C(=O)N(c3ccccc3CC)C[C@]23C=C[C@H]1O3 (stereo partly drawn),51.7%
O=c1c(-c2cc(F)cc(F)c2)nc2cnc(N3CCNCC3)nc2n1Cc1ccc(F)cc1,79.9%

(next part)
Compound,AmpC nodet inh
CCOC(=O)NCc1cc(-c2nn(C)c(=O)c3ccccc23)ccc1C,44.2%
CCCC(=O)Nc1ccccc1NC(=O)CN(C)S(=O)(=O)c1ccc(C)cc1,19.1%
COc1nc(N(C)C)nc(N(OC)S(=O)(=O)c2ccccc2Cl)n1,24.5%
O=C(CN1C(=O)c2ccccc2S1(=O)=O)NCc1cccnc1,-4.4%
CC(C)C(c1nnnn1C1CCCC1)N1c2ccccc2CC1C (stereo not drawn),40.3%
CCOC(=O)c1cc2c(=O)n3ccccc3nc2n(CC2CCCO2)c1=NC(C)=O (stereo not drawn),23.9%
CC(C)[C@@H](C)/C=C\[C@@H](C)[C@@H]1CC[C@H]2C3=CC=C4C[C@@H](O)CC[C@]4(C)[C@H]3CC[C@]21C,6.2%[5.75 µM]
c1ccc(Nc2nc(-c3cccs3)cs2)nc1,4.3%
CN(C)c1ncc2nc(-c3ccc(Cl)cc3)c(=O)n(C[C@H]3CCCO3)c2n1,-9.7%
O=C(NCCCn1ccnc1)C1CC(c2cccc(Br)c2)=NO1 (stereo not drawn),12.3%
CCCS(=O)(=O)N1CCC(C(=O)N2CCC3(CC2)OCCO3)CC1,?
COc1ccc(N(C(=O)c2cccnc2)S(=O)(=O)c2ccc3c(c2)n(C)c(=O)n3C)cc1,89.4%

Next compounds.
Compound,AmpC nodet inh
Cc1ccc(N)cc1N,-10.0%
Cc1cc(C)c2[nH]c(=O)c(CN(CC3CCCO3)S(=O)(=O)c3ccc4c(c3)OCCO4)cc2c1 (stereo not drawn),101.6%
CCCC1=C(C(=O)OCC)C(c2ccc(F)cc2)n2ncnc2N1 (stereo not drawn),24.2%
O=C(O)c1nonc1-c1nonc1C(=O)O,-0.4%
NC(=O)c1ccccc1-c1nc(-c2ccccc2)no1,17.2%
O=C1CN(C(=O)COC(=O)C2CC(=O)N(Cc3ccco3)C2)c2ccccc2N1 (stereo not drawn),6.0%
O=C(c1cc(Br)ccc1O)c1cc(Br)ccc1O,-11.0%[5.75 µM]
Clc1ccc(Cl)c(Nc2ccnc(SCc3ccccc3)n2)c1,-13.8%[5.75 µM]
O=C(Nc1ccc(F)c(F)c1)c1ccc(F)c(S(=O)(=O)N2CCOCC2)c1,-9.0%
CCOC(=O)Cc1csc(NC(=O)c2cccnc2)n1,-5.0%
Cn1c(=O)oc2cc(S(=O)(=O)N3CCN(C(=O)c4ccco4)CC3)ccc21,-1.4%
Nc1nn(S(=O)(=O)c2cccc3nsnc23)cc1-c1ccc(Br)cc1,12.6µM*[single pt active]

Carrying on.
Compound,AmpC nodet inh
Cc1cccn2c(=O)c3cc(C(=O)NCc4ccccn4)n(C)c3nc12,54.6%
COCc1cc(C)nc2sc(C(=O)N3CCN(c4ccccc4)CC3)c(N)c12,73.6%
Cn1c(CCCNC(=O)c2ccccc2)nc2ccccc21,-0.3%
COc1cccc(-c2csc(N3CCN(S(=O)(=O)c4ccc(F)cc4)CC3)n2)c1,-6.9%
CCOC(=O)CN1C(=O)COc2ccc(Cl)cc21,9.4%
CCOC(=O)C1=C(c2ccccc2)Nc2ncnn2C1c1ccccn1 (stereo not drawn),11.4%
COC(=O)[C@@]1(Cc2ccc(OC)cc2)[C@H]2c3cc(C(=O)N4CCCC4)n(Cc4cc(C)n(C)n4)c3C[C@H]2CN1C(=O)c1ccccc1,181.3%
CC#CP(=O)(OCC)C(O)(c1ccccc1)C(F)(F)F (stereo not drawn),22.9%
CCn1cc(Br)c(C(=O)Nc2ccc(C(=O)OC(C)C)cc2)n1,41.8%
O=C(c1ccc(C#CC2(O)CCCCC2)cc1)N1CCOCC1,25.4%
COc1ccc(CCN(Cc2nc(-c3ccccc3)no2)Cc2nc(-c3ccccc3)no2)cc1OC,18.6%
O=C(Nc1cnc2ccccc2c1)c1cccc(-n2cnnn2)c1,-4.1%

As entered above.
Under AmpC nodet inh, c1ccc(Nc2nc(-c3cccs3)cs2)nc1 has the entry 4.3%
Under AmpC nodet inh, COc1ccc(S(=O)(=O)NC(CC(=O)NCc2ccc3c(c2)OCO3)c2ccco2)cc1 (stereo not drawn) has the entry -5.6%
Under AmpC nodet inh, CCOC(=O)c1cc2c(=O)n3ccccc3nc2n(CC2CCCO2)c1=NC(C)=O (stereo not drawn) has the entry 23.9%
Under AmpC nodet inh, CCN=C1SC(CC(=O)Nc2ccccc2OCC)C(=O)N1CC (stereo not drawn) has the entry 37.7%

Additional results:
Compound,AmpC nodet inh
N#Cc1cccc(NC(=O)N2CC[C@@]3(CCCN(C(=O)c4ccco4)C3)C2)c1,-5.2%
CCOC(=O)c1cccc(NC(=O)CSc2nc3ccccc3c(=O)n2CC)c1,14.2%
O=C1OC2(c3ccc(O)cc3Oc3cc(O)ccc32)c2c1c(-c1ccccc1)c(-c1ccccc1)c(-c1ccccc1)c2-c1ccccc1,2.51µM*
O=C(NC1CCCCCC1)C1c2ccccc2C(=O)N1CCCN1CCOCC1 (stereo not drawn),15.0%
Cc1cnn(C(=O)c2oc3ccccc3c2C)c1,0.7%
O=C(NCc1ccc2c(c1)OCO2)C1CCCN(S(=O)(=O)c2cccs2)C1 (stereo not drawn),3.98µM*[single pt active]
COC(=O)COc1ccc(S(=O)(=O)NCc2ccncc2)cc1,-1.6%
COc1ccc(C(=O)Cn2c(N3CCOCC3)nc3c2c(=O)n(C)c(=O)n3C)cc1,14.6%
c1ccc(-c2nn3c(-c4ccccc4)nnc3s2)cc1,8.9%
CCn1c2ccccc2c2cc(C3C(C#N)=C(C)NC(C)=C3C#N)ccc21,27.7%
CC1(C)CC(=O)C2=C(C1)OC(N)=C(C#N)C21CCN(C(=O)OCc2ccccc2)CC1,48.6%
Cc1nc2ccc(-n3ccc(=O)cc3)cc2s1,-17.0%

Source: PubChem (National Center for Advancing Translational Sciences (NCATS))

Some of the compounds tested; the hit share may differ from the screen's.
